Six1-Eya2 inh – blocks human Six1 binding to Eya2; activity change, % (no concentration beside the values); AlphaScreen GST-Six1/His-Eya2 binding, biochemical; hits give low values; control for the full effect not named in the record; Q15475+O00167; AID 651725; actives 0.56% (n = 360,000); in the data active = activity change below about -65%; inconclusive = about -30% to -65%; inactive = above about -30%; note: % is set by controls: 0 for no effect and ±100 for the full control effect; compound concentration not given in the record
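Compounds are tested against tagged Six1 and Eya2 proteins bridged by glutathione donor and nickel acceptor beads; after a one-hour incubation at 37 °C without light, AlphaScreen emission is recorded.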
CtBP-E1A inh – CtBP/E1A binding inhibition; AlphaScreen GST-E1A/His-CtBP binding, 1536-well; hits give low values; control for the full effect not named in the record; activity change, % (no concentration beside the values); actives 0.49% (n = 340,000); in the data active means activity change below about -65%; inconclusive means about -30% to -65%; inactive means above about -30%; note: % is set by controls: 0 for no effect and ±100 for the full control effect; compound concentration not given in the record
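Protein mix (5X: 125 nM each GST-E1A, His-CtBP) was incubated with pinned compound 2 h at 37 deg C in dark, in 50 mM Tris pH 8.0 buffer with 300 mM NaCl. Glutathione donor and nickel acceptor beads followed; AlphaScreen signal read after 1 h.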
Sfp PPTase inh – Sfp phosphopantetheinyl transferase inhibition; Q9F4F7; Biochemical Sfp PPTase activity, qHTS; Potency, µM, for the others: max response, negative = inhibition, usual class: inhibitors; actives 3.5% (n = 310,000); AID 1490; active = well fitted inhibition curve with a large enough effect; inconclusive = small, poorly fitted or top-dose-only effect, or another doubt; inactive = no such curve, though single readings can be large or run the other way;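 note: the enzyme is Sfp with the accession as filed and its product quenches rhodamine fluorescence; potency is the fitted concentration of half-maximal effect; 0% = enzyme reaction without inhibitor and -100% = no enzyme wells; top concentration of the series not given in the record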
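Fluorescence-quenching assay with 15 nM Sfp, 5 uM rhodamine-CoA and 12.5 uM BHQ-2-labelled ybbR peptide in pH 7.6 Hepes/MgCl2 buffer. Enzyme was pre-incubated with compound for 15 min at room temperature. Rate was taken from the 30-min fluorescence change (525/598 nm).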
D2 ag – agonists of human D2 dopamine receptor (beta-arrestin); P14416; DiscoveRx PathHunter D2 beta-arrestin, luminescence, 90 min; 100% = 57 uM dopamine signal; activation, % (concentration not given with the values); actives 0.084% (n = 360,000); in the data active = activation above about 40%; inconclusive = about 15% to 40%; inactive = below about 15%; note: compound concentration not given in the record; the text of the record calls up to 30% inactive
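Agonist mode: compounds alone added to overnight-plated D2 PathHunter cells for 90 min at 37 C, with 57 uM final dopamine (EC100) defining full response. Beta-arrestin recruitment detected by chemiluminescent reagent, read after 1 h at ambient temperature.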
PINK1 modulator – changes PINK1 expression | actives 0.2% (n = 410,000) | PINK1 immunofluorescence, high-content cytometry, 24 h | Potency, µM (doses to about 76.6 µM), inactives show top-dose activation (PINK1 increase), hits mostly activators; active = well fitted activation curve with a large enough effect; inconclusive = small, poorly fitted or top-dose-only effect; inactive = flat fitted curve, though single readings scatter; cell line not stated here;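 note: potency is the fitted concentration of half-maximal effect; % of control where 0% means no effect; nearly all actives have a fitted effect of over 65% in size; a mitochondrial uncoupler was the plate control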
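A stable cell line was treated with compounds at 5 concentrations for 24 hours, with CCCP as control. PINK1 levels and mitochondrial localization were measured by immunofluorescence with mitochondrial, cell and nuclear markers after fixation, read by laser-scanning cytometry.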
D2 PAM – positive allosteric modulators of human D2 dopamine receptor. AID 624464. actives 0.23% (n = 360,000). DiscoveRx D2 beta-arrestin cells, luminescence, 90 min; 100% = 57 uM dopamine signal. P14416. potentiation, % (concentration not given with the values); active = potentiation of 50% or more; inconclusive = 30% to 50%; inactive = 30% or less;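 note: compound concentration not given in the record; tested on top of an EC20 dose of dopamine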
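D2 cells co-treated with compound plus 50 nM dopamine (EC20) for 90 min at 37 deg C to detect potentiation. Beta-arrestin recruitment was read as enzyme-fragment luminescence after 1 h at ambient temperature. Full response was set by 57 uM dopamine.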
TRPV1 potentiator – potentiators of human vanilloid receptor 1 (TRPV1); AID 540277; TRPV1-expressing cells, Fluo-8 calcium influx, capsaicin EC20 potentiation; host cell line not named in the record; control for the full effect not named in the record; potentiation, % at 8.33 µM; actives 0.02% (n = 320,000); active means potentiation above 80%; inconclusive means 30% to 80%; inactive means below 30%; note: 0% is about no effect
Target sequence (Q8NER1 whole entry, looked up): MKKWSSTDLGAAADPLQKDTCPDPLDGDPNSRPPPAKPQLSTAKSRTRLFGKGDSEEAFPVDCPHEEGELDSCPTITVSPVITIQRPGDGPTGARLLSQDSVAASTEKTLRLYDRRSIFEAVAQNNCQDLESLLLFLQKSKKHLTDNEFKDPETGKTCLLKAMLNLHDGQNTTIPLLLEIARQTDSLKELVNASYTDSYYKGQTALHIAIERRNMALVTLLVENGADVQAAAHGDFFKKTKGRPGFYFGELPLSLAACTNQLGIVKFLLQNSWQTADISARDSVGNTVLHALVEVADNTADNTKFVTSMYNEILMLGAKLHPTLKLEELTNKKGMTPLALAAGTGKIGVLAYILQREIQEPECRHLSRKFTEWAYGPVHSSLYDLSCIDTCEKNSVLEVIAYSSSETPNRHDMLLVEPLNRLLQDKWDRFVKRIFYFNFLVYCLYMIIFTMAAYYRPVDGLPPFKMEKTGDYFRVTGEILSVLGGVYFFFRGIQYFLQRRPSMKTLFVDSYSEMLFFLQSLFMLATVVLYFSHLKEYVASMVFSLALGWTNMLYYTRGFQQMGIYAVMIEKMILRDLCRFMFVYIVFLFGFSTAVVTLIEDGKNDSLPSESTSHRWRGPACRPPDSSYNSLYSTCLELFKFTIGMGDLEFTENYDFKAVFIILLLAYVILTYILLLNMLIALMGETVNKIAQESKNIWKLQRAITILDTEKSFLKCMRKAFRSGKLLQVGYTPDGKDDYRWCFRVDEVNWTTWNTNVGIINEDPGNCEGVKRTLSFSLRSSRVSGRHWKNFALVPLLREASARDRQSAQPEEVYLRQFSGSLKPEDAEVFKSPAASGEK
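Cells expressing TRPV1 were dye-loaded with Fluo-8 and read kinetically: 10 s baseline, 3 min after compound (agonist portion), then 2 min after EC20 capsaicin (allosteric enhancer portion). Calcium-bound dye fluorescence at 480/520 nm.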
* marks the source's active call; other numbers are inactive results; ? = inconclusive; . = no result given; [ ] = remark or other dose.

molecule,CtBP-E1A inh,D2 PAM,D2 ag,Sfp PPTase inh,Six1-Eya2 inh,TRPV1 potentiator,PINK1 modulator
CCN(CC)CCN(CC(=O)N(C1CCCCC1)C1CCCCC1)C(=O)c1cccnc1,5.7,-7.7,-0.6,-23.1%,5.4,4.4,0.3%
CSCC[C@H](NC(=O)c1cccs1)c1nnc2ccccn12,.,-6.4,1.1,5.7%,3.2,-4.5,-1.2%
N#C/C(=C/c1ccc(N2CCOCC2)o1)C(=O)NC1CCCCC1,-20.8,-17.1,-19.2,25.1µM*,-0.4,-13.6,2.7%
NC(=O)Nc1n[nH]c(-c2ccccc2)n1,.,17.0,5.0,20.4%,-2.4,26.8,-0.1%
COc1ccc(NC(=O)c2cc(-c3cc(F)ccc3OCC3CCCO3)n[nH]2)c(C)c1 (stereo not given),-2.2,-2.7,-0.3,.,-7.2,.,3.0%
Cn1c(=O)c2c(nc(CN3CCN(C(c4ccccc4)c4ccccc4)CC3)n2CCCO)n(C)c1=O,-2.2,-5.2,-0.2,3.6%,7.7,2.6,2.1%
CCOc1cc(/C=C(/C#N)c2ccc(Cl)cc2)cc(Cl)c1OCC(=O)O,?,-2.1,-3.7,6.9%,-14.6,12.2,-0.1%
CC(C)NS(=O)(=O)c1ccc(NC(=O)Cc2cccs2)cc1,11.7,-15.1,-2.9,19.6%,7.5,27.7,-0.4%
COc1ccc(CCNC(=O)c2ccc(CN3CCC(Cc4ccccc4)CC3)cc2)cc1OC,3.9,-15.7,-0.1,13.8%,0.1,-9.2,1.6%
COc1ccccc1NC(=O)CSc1ncn[nH]1,-2.9,3.8,-1.4,1.9%,3.5,13.9,-2.4%
Cc1ccc(OCCCCn2ccnc2)c([N+](=O)[O-])c1,.,-12.2,3.2,56.2µM*,2.1,-5.2,-0.6%
Cc1cccc(C2CC(c3ccc(Br)cc3)Nc3nc(N)nn32)c1 (stereo not given),-1.5,0.3,-3.2,12.8%,-5.6,-3.4,0.8%
CCCn1nc(C(=O)N2CC(=O)Nc3ccccc32)c2ccccc2c1=O,4.8,6.2,-0.5,12.6%,1.0,-11.4,1.5%
COc1cccc(OC)c1C(=O)Nc1cc(C)nn1-c1nc2ccccc2[nH]1,-9.5,-0.4,-3.2,5.9%,2.8,-19.5,-3.5%
COc1cccc(N2CC(O)=C(c3nc4ccccc4s3)C2=N)c1,.,-9.7,-3.1,-20.8%,5.8,-3.7,23.5%
CCOC(=O)[C@@H]1CCNC[C@@H]1c1ccccc1,6.0,-1.3,-4.7,1.2%,27.7,1.1,1.4%
C#CCOc1ccc(Br)cc1/C=N/O,-0.3,-8.0,-0.4,-14.3%,10.5,?,-1.7%
Cc1ccc(S(=O)(=O)N2CCC[C@H]2C(=O)OC(C)C(=O)Nc2ncc(Cl)cc2Cl)cc1 (stereo not given in full),-0.3,2.5,-1.8,2.5%,2.3,-4.3,-2.0%
COc1ccc(C(=O)n2nc(-c3ccc(Cl)cc3)nc2N)cc1OC,-3.5,-7.9,-3.1,1.1%,8.1,-21.0,1.4%
COc1c(C(=O)Nc2ccc(CN3CCOCC3)cc2)cc2ccccc2c1Br,12.0,-22.1,-3.5,3.1%,9.0,-14.4,1.9%
CN(/N=C/Cc1nnnn1-c1ccc(Cl)cc1)c1ccccc1,-17.8,-13.3,-4.4,2.1%,-18.3,-8.5,2.4%
O=c1cc(CSCc2ccc(Cl)cc2)[nH]c(=O)[nH]1,19.5,-8.0,-6.4,8.2%,12.8,-15.0,1.2%
COc1ccc(C(c2c(C)[nH]n(-c3ccccc3)c2=O)c2c(C)[nH]n(-c3ccccc3)c2=O)cc1OC,4.1,-24.6,-5.1,0.6%,-9.3,3.6,5.7%
COc1ccc(-c2nnn(CC(=O)N(CCCO)C(C(=O)NC3CCCC3)c3ccncc3)n2)cc1 (stereo not given),5.8,-8.7,-0.4,14.2%,3.7,9.2,-1.3%
O=C(CC(NC(=O)OCc1ccccc1)C(=O)O)OCc1ccccc1 (stereo not given),.,-3.0,-2.0,13.9%,0.4,5.3,1.5%
CCN(c1ccccc1)S(=O)(=O)c1ccc(OC)c(NC(=O)Cc2ccccc2OC)c1,0.2,-1.4,-0.8,.,-5.0,-5.7,-1.1%
COc1ccc(Cc2nnc(SCC(=O)c3ccc4c(c3)NC(=O)CO4)o2)cc1,7.9,-11.7,-4.0,.,2.3,-12.2,0.6%
NC(=O)CC(NC(=O)c1ccccc1)c1ccc(NC2CCCCCCC2)c([N+](=O)[O-])c1 (stereo not given),-3.1,-4.0,2.2,-12.7%,-19.8,11.4,-0.1%
COc1ccc(-c2ccc(SCc3cccnc3)nn2)cc1OC,.,53.6*,1.0,15.4%,?,5.4,1.7%
O=C(Nc1ccc2cn[nH]c2c1)c1ccc(Cl)c(S(=O)(=O)N2CCOCC2)c1,4.8,-10.3,-2.0,2.3%,-9.7,-15.0,3.3%
CCN(CC)C(=O)C1=C(C)N(CCC2=CCCCC2)C(=O)C(CC(=O)NC(c2ccccc2)c2ccccc2)C1 (stereo not given),2.0,.,-3.3,.,-9.2,.,0.0%
Cc1cccc(C2=NN(c3ccc(Br)cc3)[C@@H](C(=O)N3CCOC3=O)[C@@H]2c2ccc([N+](=O)[O-])cc2)c1,-7.8,.,-0.1,12.8%,-14.5,.,-0.9%
COc1ccc(OCC(=O)NC(=O)c2ccccc2OC)c([N+](=O)[O-])c1,1.8,-15.0,-1.5,.,-11.8,9.1,1.0%
O=C1CC(/C=C/c2ccncc2)=Nc2ccccc2N1,7.1,-9.7,2.7,4.3%,1.7,-4.7,1.0%
O=C(NCCN1CCOCC1)c1ccc(NS(=O)(=O)c2cccc([N+](=O)[O-])c2)cc1,-20.2,-11.3,3.0,.,10.3,-8.0,0.1%
O=C(c1cc(-c2ccc(Cl)c(Cl)c2)on1)N1CCN(c2ccccc2)CC1,7.6,-13.9,-1.1,5.5%,1.1,-5.4,15.7%[38.3 µM]
O=C(O)CCN1C(=O)/C(=C\c2cccc(OCc3ccccc3)c2)SC1=S,0.0,-5.7,-11.6,10.7%,?,?,18.7%
CCc1ccc2c(COC(=O)c3n[nH]c4ccccc34)cc(=O)oc2c1,-4.8,-16.7,-0.9,-9.0%,-4.0,10.1,3.8%
Cc1ccccc1OS(=O)(=O)c1cccc([N+](=O)[O-])c1,0.2,6.7,5.0,.,-24.7,.,4.5%
Oc1ccc(C[C@@H](CN2CCCC2CN2C(=S)NC[C@@H]2Cc2ccccc2)N2C[C@H](Cc3ccccc3)N(CC3CCCCC3)C2=S)cc1 (stereo not given in full),-1.8,.,.,.,-10.2,.,1.8%
COc1ccccc1-c1ccc2c(c1)O[C@@H](CN(C)C(=O)c1ccncc1)[C@H](C)CN([C@@H](C)CO)S2(=O)=O,-4.3,-3.3,3.6,.,-0.9,.,1.0%
CCc1ccc(NC(=O)CN2C(=O)COc3ccc(S(=O)(=O)N4CCCC4)cc32)cc1,-2.3,-18.8,-5.6,12.0%,-1.2,9.6,-0.7%
Cc1cc(=O)n2c(n1)SCOC2,4.9,-1.7,1.1,13.7%,-0.5,?,-0.9%
N/C(=N\OC(=O)c1ccc(F)cc1)c1ccccc1,-3.4,72.1*,?,7.0%,23.8,4.7,3.9%
COc1cccc(NC(=O)CNc2cc(S(=O)(=O)N3CCOCC3)ccc2N2CCCC2)c1,-3.4,-3.1,6.4,.,-16.1,1.8,-1.0%

Some of these compounds in order of length of the SMILES, highest first:
molecule,CtBP-E1A inh,D2 PAM,D2 ag,Sfp PPTase inh,Six1-Eya2 inh,TRPV1 potentiator,PINK1 modulator
O=C(O)CCN1C(=O)/C(=C\c2cccc(OCc3ccccc3)c2)SC1=S,0.0,-5.7,-11.6,10.7%,?,?,18.7%
CCc1ccc2c(COC(=O)c3n[nH]c4ccccc34)cc(=O)oc2c1,-4.8,-16.7,-0.9,-9.0%,-4.0,10.1,3.8%
Cc1cc(=O)n2c(n1)SCOC2,4.9,-1.7,1.1,13.7%,-0.5,?,-0.9%

Next section:
molecule,CtBP-E1A inh,D2 PAM,D2 ag,Sfp PPTase inh,Six1-Eya2 inh,TRPV1 potentiator,PINK1 modulator
O=C(/C=C/c1cccnc1)c1ccccc1O,.,-3.4,-0.6,44.7µM*,0.1,6.4,1.5%
COc1cccc(NC(C(=O)Nc2cccc(C(C)=O)c2)c2ccccc2)c1 (stereo not given),-7.8,5.6,-2.5,-5.2%,0.3,-2.3,10.0%
O=C(Nc1ccccc1F)c1ccccc1-c1ccc(C(F)(F)F)cc1,-4.0,-15.1,-4.2,10.0%,6.2,0.1,5.6%
Cc1ccc(CNC(=O)C2(C)Oc3ccccc3NC2=O)cc1 (stereo not given),-5.6,-17.9,-4.1,12.0%,3.4,5.6,0.0%
COc1ccc(NC(=S)NCC(c2ccco2)N2CCCC2)cc1 (stereo not given),-22.0,-10.3,-0.5,0.5%,-1.6,-0.2,-0.7%
CCn1nnnc1-c1ccc(OC)c(S(=O)(=O)NCc2ccccc2)c1,-19.0,4.1,-2.8,13.5%,-0.9,-8.5,-3.2%
Cc1nc2cc(C(F)(F)F)ccc2n1CCNc1nc(-c2ccc([N+](=O)[O-])c(Cl)c2)cs1,-4.5,-3.5,-1.7,4.7%,-1.8,6.6,10.1%
Fc1ccccc1CCNc1nnnn1-c1ccccc1,3.2,-20.9,-2.2,4.4%,0.5,-7.4,0.5%
COc1cccc(CN(C)C(=O)CCNC(=O)c2ccco2)c1,5.7,-3.3,3.2,.,2.3,-7.7,0.2%
COc1ccc(-c2csc(Nc3ccc(S(N)(=O)=O)cc3)n2)cc1,2.1,-16.3,0.7,?,-5.2,10.3,.
Cc1cc(C)nc(NC(=O)c2ccc([N+](=O)[O-])c(C)c2)n1,-1.8,9.0,-0.8,18.0%,3.7,-1.4,-0.7%
COCCNC(=S)N1CCC2CC1c1cc(-c3ccc4c(c3)OCO4)ccc12 (stereo not given),-15.5,-2.7,-3.6,.,-21.2,.,2.3%

Outcome played no part in choosing rows (roughly 3.7% active in at least one column).
